Compound activity from PubChem.
2A StopGo = High Throughput Screening for Foot and Mouth Disease Virus Antivirals; human cells with a luciferase reporter of 2A StopGo recoding; control for the full effect not named in the record; Potency, µM (series often up to 57.9 µM), without a hit: at the highest dose signal change, negative = less light; 410,000 compounds, 1.2% hits; AID 1159524, 2015; active = well fitted falling curve with a large enough effect; inconclusive = small, poorly fitted or top-dose-only effect; inactive = no such curve, though single readings can be large or run the other way; tested in HEK293T cells; note: % is set by controls: 0 for no effect and ±100 for the full control effect; nearly all actives have a fitted effect of over 45% in size; luciferase light after 4 h
Lassa entry inh = qHTS for Inhibitors of binding or entry into cells for Lassa Virus. 300,000 compounds, 1.2% hits. Lassa virus pseudotype entry inhibition, cell reporter; control for the full effect not named in the record. Potency, µM (doses to about 37.9 µM), for the others: top-dose activity change, negative = inhibition, hits mostly inhibitors; active means well fitted inhibition curve with a large enough effect; inconclusive means small, poorly fitted or top-dose-only effect, or effect the other way; inactive means flat fitted curve, though single readings scatter; tested in HEK293 cells; note: % is set by controls: 0 for no effect and ±100 for the full control effect; nearly all actives have a fitted effect of over 50% in size; luciferase read-out
Cruzain inh noDet = qHTS Assay for Promiscuous and Specific Inhibitors of Cruzain (without detergent). purified cruzain, Z-FR-AMC fluorescence, no detergent. Potency, µM, inactives show max response, negative = inhibition, hits mostly inhibitors. 200,000 compounds, 2.3% hits; active = well fitted curve in the direction sought with a large enough effect; inconclusive = small, poorly fitted or top-dose-only effect, or another doubt; inactive = no such curve, though single readings can be large; an effect the other way counts as inactive or inconclusive;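 note: plate controls were enzyme without inhibitor for no effect and buffer without enzyme for full effect; nearly all actives have a fitted effect of over 40% in size; top concentration of the series not given in the record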
Target sequence (P25779 123-467 limits assumed): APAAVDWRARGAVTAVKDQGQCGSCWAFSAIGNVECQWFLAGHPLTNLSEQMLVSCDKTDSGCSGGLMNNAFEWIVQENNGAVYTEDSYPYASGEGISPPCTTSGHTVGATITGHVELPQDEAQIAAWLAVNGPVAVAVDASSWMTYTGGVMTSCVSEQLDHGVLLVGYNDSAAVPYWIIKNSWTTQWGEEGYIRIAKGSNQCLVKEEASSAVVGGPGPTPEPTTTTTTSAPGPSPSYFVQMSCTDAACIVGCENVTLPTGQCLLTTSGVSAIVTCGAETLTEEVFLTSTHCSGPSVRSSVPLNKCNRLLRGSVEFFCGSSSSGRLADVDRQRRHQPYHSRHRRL
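Purified cruzain at 1.5 nM, pre-incubated 15 min with compound at room temperature in 100 mM sodium acetate pH 5.5, 5 mM DTT, 0.00005% Triton X-100. Reaction started with 2 uM Z-FR-AMC; AMC fluorescence increase over 60 s gives rate.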
SARS PLpro yeast = qHTS of Yeast-based Assay for SARS-CoV PLP; S. cerevisiae expressing SARS-CoV PLpro, growth rescue; control for the full effect not named in the record; Potency, µM (doses to about 32.9 µM), inactives show at the top dose activity, positive = growth rescue; 330,000 compounds, 0.19% hits; AID 485353, 2010; note: 0% is about no effect; nearly all actives have a fitted effect of over 55% in size; growth read by luminescence after 48 h
MARV entry inh = qHTS for inhibitors of binding or entry into cells for Marburg Virus; Potency, µM (series often up to 37.8 µM), for inactives: at the top dose activity change, negative = inhibition, usual class: inhibitors; AID 540276, 2011; Marburg virus pseudotyped entry inhibition, cell reporter; control for the full effect not named in the record; about a third of the inactives were read at about 46 µM; 300,000 compounds, 1.8% hits; active = well fitted inhibition curve with a large enough effect; inconclusive = small, poorly fitted or top-dose-only effect, or effect the other way; inactive = flat fitted curve, though single readings scatter; tested in HEK293 cells; about a fifth of its hits are not listed in these tables; note: % is set by controls: 0 for no effect and ±100 for the full control effect; luciferase read-out
NS1 inh = qHTS Assay for Inhibitors of Influenza NS1 Protein Function | S. cerevisiae slowed by influenza A NS1, growth recovery by OD600 | Potency, µM (doses to about 46.1 µM), without a hit: at the highest dose activity, positive = more growth | 270,000 compounds, 0.4% hits; note: actives are rising curves; nearly all actives have a fitted effect of over 50% in size
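S. cerevisiae expressing influenza A NS1, grown in glucose, washed, then diluted 1:100 into pH 6.0 -URA galactose medium with 23 nl compound. Growth recovery read as OD600; NS1-free strain serves as control.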
Cruzain Triton = qHTS Assay for Promiscuous and Specific Inhibitors of Cruzain (with detergent); Cruzipain (Trypanosoma cruzi), P25779; purified cruzain, Z-FR-AMC fluorescence, 0.01% Triton; Potency, µM, without a hit: max response, negative = inhibition, actives largely listed as inhibitors; 200,000 compounds, 0.43% hits; AID 1478, 2009; active = well fitted curve in the direction sought with a large enough effect; inconclusive = small, poorly fitted or top-dose-only effect, or another doubt; inactive = no such curve, though single readings can be large; an effect the other way counts as inactive or inconclusive;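 note: plate controls were neutral wells for no effect and buffer without enzyme for full effect; nearly all actives have a fitted effect of over 40% in size; top concentration of the series not given in the record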
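In this qHTS format, compounds are incubated with 1.5 nM cruzain for 15 min at room temperature before 2 uM Z-FR-AMC is added. Release of AMC is followed at 360/450 nm, and progress is taken as the 60 s fluorescence difference.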
RE007 growth inh = qHTS Assay for Inhibitors of the HIV-1 protein Vpr | 360,000 compounds, 0.21% hits | Potency, µM (titrated, usually from 92.2 µM), for the others: top-dose activity change, negative = less growth | S. pombe RE007 Vpr strain, BacTiter-Glo ATP luminescence, 24 h; control for the full effect not named in the record; active = well fitted falling curve with a large enough effect; inconclusive = small, poorly fitted or top-dose-only effect; inactive = no such curve, though single readings can be large or run the other way;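 note: % is set by controls: 0 for no effect and ±100 for the full control effect; nearly all actives have a fitted effect of over 50% in size; the assay follows cell death caused by Vpr and the record does not say whether a fall means rescue or toxicity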
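Fission yeast RE007 carrying one integrated HIV-1 vpr copy, seeded at OD 0.01 in PMG+AL medium with 23 nL pinned compound. Grown 24 h at 30 degrees; viability read by BacTiter-Glo luminescence after 5 min.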
The depositor's hits bear a star; ? = inconclusive; . = not tested or not shown; & = joins results of further samples; [ ] = remark or other dose. Unless noted, calls come from the whole dose curve; as a rule, active means well fitted rising curve with a large enough effect; inconclusive means small, poorly fitted or top-dose-only effect; inactive means no such curve, though single readings can be large or run the other way. Potency is the fitted concentration of half-maximal effect.

SMILES | 2A StopGo | Lassa entry inh | Cruzain inh noDet | SARS PLpro yeast | MARV entry inh | NS1 inh | Cruzain Triton | RE007 growth inh
CCCC(=O)Nc1ccc2c(c1)Cc1ccccc1-2 | 59%[activator] | . | . | -11% | . | -30% | . | -8%
Cc1cc(Cl)c2oc(C(=O)NCCN3CCCCC3CO)c(C)c2c1 (stereo unspecified) | 21% | -2% | . | 4% | -8% | 17% | . | -16%
COc1cccc(NC(=O)C2CCN(S(=O)(=O)c3ccc4c(c3)N(C(C)=O)CCO4)CC2)c1 | -21% | -6%[46.1 µM] | . | -1% | -4%[46.1 µM] | -11% | . | 4%
COc1ccc(N2CCN(C(c3cccc(OC)c3OC)c3nnnn3C3CCCC3)CC2)cc1 (stereo unspecified) | -18% | 2.8µM* | 1% | -12% | ? | -30% | 0.4% | 26%
CCOc1ccc(NC(=O)c2cc(F)c(F)cc2Cl)cc1OCC | 1% | 3% | . | -1% | ? | . | . | -3%
COC(=O)c1ccc(NC(=O)CC2C(=O)N(c3ccccc3)C(=O)N2Cc2ccc(F)cc2)cc1 (stereo unspecified) | -10% | 0%[46.1 µM] | -6% | . | . | . | -4.2% | .
COc1cc(NC(=O)c2cc([N+](=O)[O-])ccc2NC(=O)CNC2CCCCC2)cc(OC)c1 | -6% | -9% | . | 0% | -16%[46.1 µM] | 12% | . | -18%
CCOP(=O)(OCC)C(NC(=O)Nc1ccc(Cl)c(Cl)c1)C(N)=O (stereo unspecified) | -26% | -7% | 2% | 21% | ? | -28% | -8.5% | 0%
CC(=O)NC1=NN(C(C)=O)C(c2ccc(C(C)C)cc2)S1 (stereo unspecified) | 8% | 10% | 1% | 4% | -5% | 10% | 0.6% | 39%
O=C(CCc1ccccn1)N1CCCC(N2CCN(c3ccc(F)cc3)CC2)C1 (stereo unspecified) | ? | 1% | . | 17% | -13% | 3% | . | 2%
COc1cc(C2CC(=O)c3c([nH]c(C(=O)OCC4CCCCC4)c3C)C2)cc(OC)c1OC (stereo unspecified) | ? | -7%[46.1 µM] | 14% | . | ? | . | -3.1% | .
CN1C(CC(=O)Nc2ccc(Cl)cc2Cl)c2ccccc2CC1(C)C (stereo unspecified) | -18% | 7% | . | 0% | ? | 4% | . | -18%
COc1ccc(C(=O)NC23CC4CC(CC(C4)C2)C3)cc1 | 14% | . | . | 1% | . | 0% | . | 4%
COc1ccccc1C1CC(c2ccc(Cl)cc2Cl)Nc2nc(N)nn21 (stereo unspecified) | ? | . | 14% | 2% | . | -10% | -14% | 1%
O=C(CCNS(=O)(=O)c1ccc2c(c1)CCN2C(=O)C1CC1)N1CCN(c2cccc(C(F)(F)F)c2)CC1 | ? | -21%[46.1 µM] | ? | . | . | . | -5.6% | .
NC(=S)N=Nc1c(O)n(CCCl)c2ccc(Cl)cc12 | ? | ? | . | 0% | ? | . | . | 16%
CC1=C(C(=O)OCCOC(C)C)C(c2cc3c(cc2Br)OCO3)C2=C(CCCC2=O)N1 (stereo unspecified) | . | -25% | ? | 2% | -11% | -4% | -3.1% | -4%
O=S(=O)(c1ccccc1)N1CCNCC1 | 10% | -2% | . | . | -12%&-12% | . | . | 6%
O=C(O)c1cccc(N2C(=O)CSC2c2ccccc2)c1 (stereo unspecified) | -9% | -3%[46.1 µM] | . | 2% | -10%[46.1 µM] | -1% | . | -8%
Cc1nn(Cc2ccc(Cl)cc2Cl)c(C)c1NC(=O)c1nn(C)cc1Cl | 0% | -24% | 6% | -6% | ? | 6% | 11% | -9%
O=S(=O)(Nc1nc2ccccc2nc1Nc1ccc2c(c1)OCCO2)c1cccs1 | 24% | -28% | 25µM* | -8% | -17% | -40% | -5.0% | 4%
CCOC(=O)C(c1ccccc1)C(Nc1cc(C(F)(F)F)cc(C(F)(F)F)c1)c1ccccn1 (stereo unspecified) | -12% | 0% | . | 1% | ? | 0% | . | 15%
Cn1c(=O)c(=O)n(C)c2cc(S(=O)(=O)N3CCCC3C(=O)NCc3cccs3)ccc21 (stereo unspecified) | -2% | 4% | . | 0% | -14% | -2% | . | -2%
Cc1ccccc1C1NC(c2ccccc2C)C(C)C(=O)C1C (stereo unspecified) | -28% | . | . | -7% | . | -12% | . | 9%
Cc1cc(C)cc(N(C(=O)c2csnn2)C(C(=O)NC(C)(C)C)c2cccnc2)c1 (stereo unspecified) | -1% | 1%[46.1 µM] | . | 0% | ? | -2% | . | -1%
CC(=O)Nc1ccc(S(=O)(=O)N2CCN(Cc3csc(C)n3)CC2)cc1 | -16% | 0% | . | -2% | -3% | 5% | . | -17%
CCCCCCCNC(=O)C1(CC2CC(c3ccc(Cl)cc3)=NO2)CCN(C(=O)C2CCCC2)CC1 (stereo unspecified) | -15% | . | . | -9% | . | 15% | . | 13%
O=C(CC1N=C2c3ccccc3N=C(SCc3ccc(F)cc3)N2C1=O)NCc1ccco1 (stereo unspecified) | 16% | 7% | ? | 6% | 9%&9% | 4% | -6.9% | 9%
COc1cc(C(=O)NCC(c2cccs2)S(=O)(=O)c2cccs2)cc(OC)c1OC (stereo unspecified) | -16% | -26%[46.1 µM] | 13% | . | . | . | -0.3% | .
Cc1cc(NS(=O)(=O)c2ccc(NC(=O)/C=C/c3ccccc3)cc2)nc(C)n1 | 2% | -2% | . | -2% | 8% | . | . | 28%
CN(Cc1nc(-c2cnccn2)no1)CC(O)c1ccccc1 (stereo unspecified) | 9% | . | . | 2% | 0%[46.1 µM] | 0% | . | 3%
Cc1ccc(C2Nc3ccccc3C(=O)N2CCCN2CCOCC2)cc1 (stereo unspecified) | 5% | . | . | 1% | . | -2% | . | -5%
Cc1cccc(C)c1OCc1cc(C(=O)N2CCCCCCC2)no1 | 13% | ? | . | -10% | ? | -30% | . | -4%
C1CN=C(NC23CC4CC(CC(C4)C2)C3)C1 | -17% | 0% | 0% | 7% | -3% | 6% | 0.5% | -1%
CCOc1ccc(C(=O)Nc2ccc(N3CCCC3)cc2)cc1 | -18% | ? | 7.9µM* | -9% | -6% | 9% | -15% | -13%
O=C(c1c(F)cccc1F)N(Cc1cccs1)C1CCCC1 | -23% | . | . | -1% | . | -5% | . | 22%
Cc1cc(NC(=O)COC(=O)Cn2c(C)csc2=O)ccc1Br | -13% | 0% | . | -3% | 10% | -6% | . | -7%
Cc1c(C(=O)Nc2ccccc2F)sc2ncn(CC(=O)N3CCOCC3)c(=O)c12 | -1% | 10%[46.1 µM] | . | -15% | 19%[46.1 µM] | 0% | . | 15%
CCCCn1nc(CC(=O)NCCN(CC)CC)c2ccccc2c1=O | -8% | 5%[46.1 µM] | . | 0% | 1%[46.1 µM] | 0% | . | -10%
CCCCN(CC)CCCNC(=O)Nc1sc2nc3n(c(=O)c2c1C)CCC(C)CC3 (stereo unspecified) | 0% | . | 47% | . | 10µM* | . | 2.8% | .
Cc1nc(NC2=NC(C(=O)Nc3ccc(Cl)cc3)CC(=O)N2)nc2ccccc12 (stereo unspecified) | . | . | -8% | 2% | 0% | 16% | 5.0% | .
O=C(Nc1nnc(C2CC2)s1)C1=NN(C2CCS(=O)(=O)C2)C(=O)CC1 (stereo unspecified) | 4% | 13%[46.1 µM] | . | 0% | 4%[46.1 µM] | . | . | 11%
COc1cc(/C=C2/C(=O)ON=C2c2ccccc2)ccc1O | ? | 0% | 8% | -15% | -4% | 11% | -3.1% | -11%
COc1ccc(CCNC(=O)c2cccc(NS(=O)(=O)c3ccccc3F)c2)cc1OC | 12% | 8% | . | -5% | -16% | -5% | . | -8%
O=C(COC(=O)c1ccc(O)cc1O)NC(=O)Cc1ccccc1 | 8% | -9% | . | . | ? | . | . | -13%
C[n+]1cccc(C(=O)[O-])c1 | -20%&3% | . | -1% | . | . | . | 5.0% | -9%[18.4 µM]
O=C(NCc1ccccc1Cl)c1cnc2sc(N3CCCCC3)nn2c1=O | -23% | -2%[46.1 µM] | 0% | . | . | . | 1.9% | .

An excerpt from above in order of SMILES length, lowest first.
SMILES | 2A StopGo | Lassa entry inh | Cruzain inh noDet | SARS PLpro yeast | MARV entry inh | NS1 inh | Cruzain Triton | RE007 growth inh
NC(=S)N=Nc1c(O)n(CCCl)c2ccc(Cl)cc12 | ? | ? | . | 0% | ? | . | . | 16%
Cc1cc(Cl)c2oc(C(=O)NCCN3CCCCC3CO)c(C)c2c1 (stereo unspecified) | 21% | -2% | . | 4% | -8% | 17% | . | -16%
O=C(NCc1ccccc1Cl)c1cnc2sc(N3CCCCC3)nn2c1=O | -23% | -2%[46.1 µM] | 0% | . | . | . | 1.9% | .
O=C(CCc1ccccn1)N1CCCC(N2CCN(c3ccc(F)cc3)CC2)C1 (stereo unspecified) | ? | 1% | . | 17% | -13% | 3% | . | 2%
Cc1nc(NC2=NC(C(=O)Nc3ccc(Cl)cc3)CC(=O)N2)nc2ccccc12 (stereo unspecified) | . | . | -8% | 2% | 0% | 16% | 5.0% | .
